# High-throughput results (PubChem BioAssay)
# CSC inhib = cancer stem cell viability inhibitors, primary screen, luminescence | AID 2717, 2010 | inhibition, % at 7.5 µM | cancer stem cell-like cells viability | 1.1% of 300,000 active;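 active means mean at 75% or more and at least half the replicates too; tested in HMLE shEcad cells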;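 further: 0% = median of negative and 100% = median of positive control wells; the first replicate is given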
# PABP FP inh = PABP poly(A) RNA binding inhibitors, primary screen, biochemical, fluorescence polarization, uHTS; 1% of 290,000 active; AID 2014, 2009; Polyadenylate-binding protein 1 (Homo sapiens), P11940; inhibition, % at 35 µM;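 active means 50% or more with normal probe brightness, or confirmed in later tests; about a fifth of its hits are not listed in these tables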;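 further: calls also rest on retests at 20 µM and on dose response follow-up; controls were probe without protein and protein plus probe with vehicle; some compounds called inactive have numbers as strong as hits; many hits fall short of the cut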
# Target sequence (P11940 whole entry, looked up): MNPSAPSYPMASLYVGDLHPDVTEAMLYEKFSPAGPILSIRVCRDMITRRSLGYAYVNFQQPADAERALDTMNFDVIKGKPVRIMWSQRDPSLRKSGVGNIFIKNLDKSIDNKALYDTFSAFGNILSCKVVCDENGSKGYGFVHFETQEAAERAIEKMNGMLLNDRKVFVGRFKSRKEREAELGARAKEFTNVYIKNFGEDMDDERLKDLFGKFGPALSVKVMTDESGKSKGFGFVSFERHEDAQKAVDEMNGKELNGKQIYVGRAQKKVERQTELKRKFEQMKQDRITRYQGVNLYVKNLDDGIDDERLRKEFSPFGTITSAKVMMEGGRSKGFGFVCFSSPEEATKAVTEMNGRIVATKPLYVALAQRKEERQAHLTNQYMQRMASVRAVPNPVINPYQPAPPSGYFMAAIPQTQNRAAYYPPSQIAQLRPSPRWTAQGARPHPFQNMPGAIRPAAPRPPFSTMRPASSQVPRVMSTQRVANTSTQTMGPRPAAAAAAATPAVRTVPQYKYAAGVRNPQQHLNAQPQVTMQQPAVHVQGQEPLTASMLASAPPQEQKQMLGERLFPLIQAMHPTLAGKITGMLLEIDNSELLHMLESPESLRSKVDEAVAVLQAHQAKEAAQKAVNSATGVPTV
# Rce1 inh = yeast Rce1p protease inhibitors, primary screen, biochemical, fluorescence, cell-free homogeneous | CAAX prenyl protease 2 (Saccharomyces cerevisiae (strain ATCC 204508 / S288c)), Q03530 | yeast membranes, quenched prenylated peptide cleavage fluorescence | calls only | 0.27% of 290,000 active | AID 2563, 2010;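 active means fall in fluorescence gain of 50% or more versus controls, with final raw signal at or below 3038400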;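 further: plate controls were neutral control wells for no effect and wells lacking membranes for full effect; tested at 10 µM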
# MT1-MMP act inh = blockers of MT1-MMP proenzyme processing, primary screen, HT1080 RFP-PRO-GFP cells, GFP/RFP fluorescence; Matrix metalloproteinase-14 (Homo sapiens), P50281; GFP/RFP ratio change, % at 20 µM; AID 651647, 2012; GFP/RFP ratio fluorescence, overnight; percent of plate control window, DMSO zero; 0.061% of 360,000 active;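 active means GFP/RFP ratio change of at least 30% with cell ATP level not reduced by more than half and red fluorescence within 50% of control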; further: strong numbers were not always called active
#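 Test system: HT1080 RFP-PRO-GFP cells; Benchmarks: DMSO and RFP-L50D-GFP cell wells; Timing: cells overnight before dosing, compound overnight, 37 °C, 5% CO2; Compound: one 20 µM compound dose with 1% DMSO; Read-out: GFP/RFP fluorescence ratio.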
# HIV Env fusion = inhibitors of HIV-1 Env-driven cell-cell fusion, primary screen, HeLa-JRFL effector, CEM21 target cells, luciferase; AID 651610, 2012; 1.1% of 360,000 active; inhibition, % at 12.3 µM;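 active means mean replicate inhibition score of at least 50 and every replicate individually at or above 50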;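 further: 0% = plate neutral controls and 100% = maraviroc near 300 nM; one replicate is shown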
# Yeast UUG start = modulators of yeast start codon fidelity, primary screen, whole organism, S. cerevisiae, single point, plate reader | S. cerevisiae UUG-firefly luciferase reporter, luminescence/redox ratio | activity score, % at 18.7 µM | 0.13% of 350,000 active;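 active means replicate mean at a twofold rise or more, about +100% in these data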;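 further: firefly luciferase made from a UUG start codon reports start codon fidelity; reporter light over untreated wells divided by growth signal over untreated wells; some hits fall short of that in this replicate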
# eIF4H FP inh = human eIF4H binding inhibitors, primary screen, translation initiation inhibitor project, biochemical, uHTS, fluorescence polarization; Eukaryotic translation initiation factor 4H (Homo sapiens), Q15056; eIF4H fluorescence polarization binding assay; inhibition, % at 35 µM; 0.94% of 290,000 active; AID 2012, 2009;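 active means 50% or more with normal probe brightness, or confirmed in later tests; about a fifth of its hits are not listed in these tables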;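 further: calls also rest on retests at 20 µM and on dose response follow-up; 0% = protein and probe with vehicle and 100% = probe without protein; strong numbers were not always called active; many hits fall short of the cut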
# eIF4H FP inh retest = recorded beside eIF4H FP inh, whose call it bears; inhibition, %; compound at 20 µM; confirmation average;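 mean of two retest wells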
# PABP FP inh retest = recorded beside PABP FP inh, whose call it bears; inhibition, %; compound at 20 µM; confirmation repeats;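 mean of two retest wells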
# MT1-MMP act inh RFP = further read-out of MT1-MMP act inh, marked with its call; RFP signal change, %; measured here: RFP expression control read;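 0 = vehicle wells; hits needed this value within 50% of zero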
# * marks the source's active call; other numbers are inactive results; i = inactive; / = no result given.
SMILES,CSC inhib,PABP FP inh,Rce1 inh,MT1-MMP act inh,MT1-MMP act inh RFP,HIV Env fusion,Yeast UUG start,eIF4H FP inh,others
CC1(C(=O)NCCC#N)CCN1C(=O)CC(c1ccccc1)c1ccccc1 (stereo unspecified),/,/,/,3,1,3,-6,/,
Cc1onc(-c2ccccc2Cl)c1C(=O)NCc1nc(-c2ccccc2)no1,-1,-8,i,-8,-7,/,-10,1,
COc1ccc(CSc2nc(O)cc(=O)n2CC(C)C)cc1F,-1,0,i,1,1,-4,-3,29,
O=C(NNC(=O)c1ccccc1F)C1=NN(c2ccccc2)C(=O)CC1,-4,0,i,1,5,-5,-11,6,
Cc1ccc(NC(=S)N2CCC(O)CC2)c(C)c1,-10,3,i,-2,1,-9,/,1,
COC(=O)c1c(NC(=O)/C=C/c2ccc3c(c2)OCO3)sc(C)c1C,103*,2,i,2,5,-3,-12,-5,
CCC(C)c1ccccc1NC(=O)c1cccnc1 (stereo unspecified),-14,15,i,-1,4,/,-7,-9,
CCOc1ccc(C(=O)C(C)=O)c(OCC)c1,-7,-2,i,-1,-1,-8,-14,4,
Cc1ccc(N(C(=O)CNC(=O)c2ccco2)C(C(=O)NCC2CCCO2)c2ccccc2)cc1C (stereo unspecified),7,4,i,-5,-2,15,-10,-1,
Fc1ccc(CNCc2cccc(Br)c2)cc1,-5,-6,i,-2,2,-3,1,-1,
COc1ccccc1NCCC#N,1,-12,i,1,7,-26,-18,-2,
CN(C)C(=O)N1CCC(C(=O)N2CCCC(C(=O)c3ccc(C(C)(C)C)cc3)C2)CC1 (stereo unspecified),-10,2,i,3,-1,21,/,-1,
CCCCn1c(=O)[nH]c(=O)c2c1nc(-c1cc(Br)ccc1OC)n2C,-6,3,i,-4,-4,4,4,8,
Cc1ccc([N+](=O)[O-])c(C(=O)N/N=C/c2cccs2)c1,8,-1,i,1,-1,1,/,-7,
CCN(CC)C(=O)c1ccc(Cn2cc([N+](=O)[O-])cn2)o1,-3,10,i,-3,3,-6,/,-6,
COCc1ccc(CN2CCC(N3CCC(C(=O)N4CCCC4)CC3)CC2)o1,/,10,i,-8,0,-8,-17,12,
CCOC(=O)C(=CNc1ccc(NC2=NCC(C)S2)cc1)C(=O)OCC (stereo unspecified),3,-6,i,-16,-12,-18,5,-4,
CCC(C)OC(=O)C[N+](C)(C)CCOC1CC2CCC1(C)C2(C)C (stereo unspecified),30,-8,i,-3,-7,66*,-5,-1,
COc1ccc(N(CC(=O)Nc2cccc(F)c2)S(=O)(=O)c2c(C)[nH]c(=O)[nH]c2=O)cc1,/,2,i,-4,7,5,-22,15,
Cc1cccc(C)c1N1CCN(S(=O)(=O)c2ccccc2)CC1,-8,-11,i,0,2,-16,/,-8,
COC(c1ccccc1)c1nnc(CCC(=O)N(C)Cc2cccc(-n3cccn3)c2)o1 (stereo unspecified),-15,-1,i,2,-1,-14,-4,-2,
COc1ccc(/C(C)=C2\SC(=S)N(CCC(=O)O)C2=O)cc1,-18,8,i,0,0,16,/,-2,
CC1CCN(C(=O)Cc2nn(C)c(=O)c3ccccc23)CC1,-4,8,i,-1,-1,/,-9,-4,
COc1ccccc1C(=O)Nc1ccc(S(=O)(=O)N2CCC(C)CC2)cc1,6,-4,i,-3,-13,2,-2,-8,
Cc1cc(C)n2nc(SCC(=O)N3CCC(C)CC3)nc2n1,7,/,/,1,1,2,0,/,
SMILES,CSC inhib,PABP FP inh,Rce1 inh,MT1-MMP act inh,MT1-MMP act inh RFP,HIV Env fusion,Yeast UUG start,eIF4H FP inh,others
COc1ccc(C(=O)CCN2CCC(C)CC2)cc1,-1,-7,i,3,5,-5,-16,-10,
C=CC[C@H](CC(=O)N(CCO)Cc1ccccc1)C(=O)NC[C@H](OC(=O)[C@@H](CC=C)Cc1ccc(F)cc1)c1ccccc1,31,/,/,-25,-31,68*,-17,/,
CCNC(=O)C1CCCN(C(=O)c2ccc(F)c(Cl)c2)CC1 (stereo unspecified),/,/,/,2,1,34,-12,/,
CC1CCCCN1CCNC(=O)c1ccc2c(c1)N(Cc1cccc(Cl)c1)C(=O)c1ccccc1S2=O (stereo unspecified),13,/,i,-5,1,-25,-18,/,
COc1ccc(C(=O)NCCNc2ncc(C(F)(F)F)cc2Cl)cc1[N+](=O)[O-],-2,5,i,1,-4,8,-4,-7,
COC(=O)c1cc(OC)c(OC)cc1NCC(=O)Nc1cccc(C(F)(F)F)c1,-1,2,i,5,0,/,/,-8,
CCCc1nnc(NC(=O)CCC(=O)Nc2ccc(Br)cc2)s1,-9,/,i,-1,0,-7,-6,/,
O=C(CC(NCc1ccccn1)C(=O)O)Nc1ccccc1Cl (stereo unspecified),-9,8,i,-8,-6,4,-31,19,
CC(Oc1ccc(Br)cc1)C(=O)N1CCc2ccccc21 (stereo unspecified),20,1,/,-1,-2,-18,3,-4,
O=C(CNCC1CCCO1)Nc1ccccc1N1CCOCC1 (stereo unspecified),-9,2,i,1,8,-4,-12,-7,
Cc1nn(-c2ccccc2)c(Cl)c1/C=C/C(=O)c1ccccc1,16,14,i,-11,-20,/,-19,-17,
Cn1c(CNC(=O)c2ccccc2)nnc1SCC(=O)N1CCN(c2ccccc2)CC1,-24,0,i,3,1,-23,-5,2,
Cc1ccc(C)c(NC(=O)C2(C)CCN2C(=O)C(C)C)c1 (stereo unspecified),/,/,/,-1,4,8,-14,/,
O=C(CCSc1ccccc1)Nc1nc2c(s1)COc1ccccc1-2,4,-9,i,11,5,-6,-19,-9,
Cc1ccc(-c2nnn(C(C)C(=O)N3c4ccccc4CCc4ccccc43)n2)cc1 (stereo unspecified),17,-9,i,-3,-7,/,-2,-7,
CC(C)(C)OC(=O)N1CCNc2ccccc2C1,5,-2,i,0,-4,/,-4,-6,
O=C(COC(=O)c1cc(Cl)ccc1O)NCCNC(=O)COC(=O)c1cc(Cl)ccc1O,-19,16,i,-5,-2,-6,-14,10,
COc1cc(C=O)ccc1OCCSc1ccc(C)cc1,/,-1,i,3,-1,/,-2,8,
Cc1ccc(OCCC(=O)OCC(=O)NCCc2ccccc2)cc1,-8,-8,i,-2,-1,-7,/,0,
Cc1ccc2c(c1)NC(=O)C(CC(=O)NCCCN1CCN(c3cc(Cl)ccc3C)CC1)O2 (stereo unspecified),11,-18,i,6,-5,-17,-17,-17,
COc1cc(/C=C2\C(=N)N3N=CSC3=NC2=O)ccc1OS(=O)(=O)c1ccccc1,-7,6,i,-2,0,-8,-11,77,eIF4H FP inh retest=-8;PABP FP inh retest=17
CN(CC(=O)N1CCN(c2cccc(Cl)c2)CC1)S(=O)(=O)c1cnc[nH]1,10,0,i,-3,-3,-6,/,-1,
COc1ccccc1NC(=O)C1C2CCCCC21 (stereo unspecified),-6,-11,i,0,2,-6,-12,1,
CNC(=O)C1CC(=O)N(c2ccc(C)cc2)C1 (stereo unspecified),/,1,i,9,7,14,-12,6,
Cc1ccc(Oc2ccc(NC(=O)CCC(=O)OCC(=O)c3cccs3)cc2)cc1C,-9,0,i,1,-4,-26,-14,-5,

# Random excerpt: four entries already listed
SMILES,CSC inhib,PABP FP inh,Rce1 inh,MT1-MMP act inh,MT1-MMP act inh RFP,HIV Env fusion,Yeast UUG start,eIF4H FP inh,others
Cc1nn(-c2ccccc2)c(Cl)c1/C=C/C(=O)c1ccccc1,16,14,i,-11,-20,/,-19,-17,
O=C(COC(=O)c1cc(Cl)ccc1O)NCCNC(=O)COC(=O)c1cc(Cl)ccc1O,-19,16,i,-5,-2,-6,-14,10,
COc1ccc(C(=O)NCCNc2ncc(C(F)(F)F)cc2Cl)cc1[N+](=O)[O-],-2,5,i,1,-4,8,-4,-7,
Cn1c(CNC(=O)c2ccccc2)nnc1SCC(=O)N1CCN(c2ccccc2)CC1,-24,0,i,3,1,-23,-5,2,

# Filtered by structure: those above with a thiophene ring, fused or not.
SMILES,CSC inhib,PABP FP inh,Rce1 inh,MT1-MMP act inh,MT1-MMP act inh RFP,HIV Env fusion,Yeast UUG start,eIF4H FP inh,others
COC(=O)c1c(NC(=O)/C=C/c2ccc3c(c2)OCO3)sc(C)c1C,103*,2,i,2,5,-3,-12,-5,
Cc1ccc([N+](=O)[O-])c(C(=O)N/N=C/c2cccs2)c1,8,-1,i,1,-1,1,/,-7,
Cc1ccc(Oc2ccc(NC(=O)CCC(=O)OCC(=O)c3cccs3)cc2)cc1C,-9,0,i,1,-4,-26,-14,-5,

# New compounds follow
SMILES,CSC inhib,PABP FP inh,Rce1 inh,MT1-MMP act inh,MT1-MMP act inh RFP,HIV Env fusion,Yeast UUG start,eIF4H FP inh,others
CC1(C)NC(=O)N(c2ccccc2Cl)C1(C)NO (stereo unspecified),-7,-5,i,3,6,-46,-11,-5,
O=c1c(S(=O)(=O)c2ccc(Cl)cc2)cn(Cc2cccc(F)c2)c2ccc(F)cc12,/,-16,i,-7,-10,-1,/,-4,
Cc1ccc(C(=O)Nc2c(C(=O)NCc3ccco3)cnn2-c2ccccc2)cc1,-25,-3,i,6,1,/,-4,-3,
COC(=O)c1ccccc1NC(=O)CSc1nc(C)cc(C)n1,-11,99,i,-3,-4,-7,10,5,eIF4H FP inh retest=-8;PABP FP inh retest=10
O=C(CSc1nnc(NC2CCCCC2)s1)N1CCOCC1,-5,/,/,-1,1,-22,-6,/,
CCc1cc(OCCCCNCc2ccccc2)ccc1Cl,70,3,i,7,5,/,-4,12,
O=C(NCCO)/C(=C/c1ccc2c(c1)OCO2)NC(=O)c1ccc(Br)cc1,-3,8,i,1,2,11,/,2,
Cc1ccccc1S(=O)(=O)Cc1ccc(C(=O)N2CCN(c3ccccc3F)CC2)o1,-1,0,i,-3,-6,8,/,-10,
CCCCC(=O)OCC(=O)c1[nH]c(C)c(C(=O)OCC)c1C,/,6,i,5,-3,/,-15,-13,
CCCSc1ccc([C@@H]2[C@@H]3C(=O)N(C)C(=O)[C@@H]3[C@]3(C(=O)OC)CCCCN23)cc1OC,-3,/,i,-2,-1,13,14,/,

# Ordered by formula weight (lowest first): 6 of the compounds above.
SMILES,CSC inhib,PABP FP inh,Rce1 inh,MT1-MMP act inh,MT1-MMP act inh RFP,HIV Env fusion,Yeast UUG start,eIF4H FP inh,others
CCC(C)c1ccccc1NC(=O)c1cccnc1 (stereo unspecified),-14,15,i,-1,4,/,-7,-9,
CC1(C)NC(=O)N(c2ccccc2Cl)C1(C)NO (stereo unspecified),-7,-5,i,3,6,-46,-11,-5,
CCN(CC)C(=O)c1ccc(Cn2cc([N+](=O)[O-])cn2)o1,-3,10,i,-3,3,-6,/,-6,
Cc1nn(-c2ccccc2)c(Cl)c1/C=C/C(=O)c1ccccc1,16,14,i,-11,-20,/,-19,-17,
COc1ccccc1C(=O)Nc1ccc(S(=O)(=O)N2CCC(C)CC2)cc1,6,-4,i,-3,-13,2,-2,-8,
Cc1ccc(C(=O)Nc2c(C(=O)NCc3ccco3)cnn2-c2ccccc2)cc1,-25,-3,i,6,1,/,-4,-3,
